# YopH inh: blocks Yersinia enterocolitica YopH tyrosine phosphatase; fluorescence Ex485/Em525; inhibition, %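 (about 10 µM by stock and volumes)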; actives 0.16% (n = 140,000);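 active = inhibition of 50% or more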;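 also: controls were vehicle for no effect and minimum signal wells for full effect; inactives centre near -20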
# RecA splice inh: inhibitors of M. tuberculosis RecA intein splicing | actives 0.75% (n = 290,000) | P9WHJ3 | AID 2221 | inhibition, %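 (about 9 µM by stock and volumes)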 | cell-free RecA intein splicing, fluorescence; in the data active = inhibition above about 30%;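 also: 0% = vehicle wells and 100% = reference inhibitor control wells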
# Target sequence (P9WHJ3 whole entry, looked up, canonical isoform): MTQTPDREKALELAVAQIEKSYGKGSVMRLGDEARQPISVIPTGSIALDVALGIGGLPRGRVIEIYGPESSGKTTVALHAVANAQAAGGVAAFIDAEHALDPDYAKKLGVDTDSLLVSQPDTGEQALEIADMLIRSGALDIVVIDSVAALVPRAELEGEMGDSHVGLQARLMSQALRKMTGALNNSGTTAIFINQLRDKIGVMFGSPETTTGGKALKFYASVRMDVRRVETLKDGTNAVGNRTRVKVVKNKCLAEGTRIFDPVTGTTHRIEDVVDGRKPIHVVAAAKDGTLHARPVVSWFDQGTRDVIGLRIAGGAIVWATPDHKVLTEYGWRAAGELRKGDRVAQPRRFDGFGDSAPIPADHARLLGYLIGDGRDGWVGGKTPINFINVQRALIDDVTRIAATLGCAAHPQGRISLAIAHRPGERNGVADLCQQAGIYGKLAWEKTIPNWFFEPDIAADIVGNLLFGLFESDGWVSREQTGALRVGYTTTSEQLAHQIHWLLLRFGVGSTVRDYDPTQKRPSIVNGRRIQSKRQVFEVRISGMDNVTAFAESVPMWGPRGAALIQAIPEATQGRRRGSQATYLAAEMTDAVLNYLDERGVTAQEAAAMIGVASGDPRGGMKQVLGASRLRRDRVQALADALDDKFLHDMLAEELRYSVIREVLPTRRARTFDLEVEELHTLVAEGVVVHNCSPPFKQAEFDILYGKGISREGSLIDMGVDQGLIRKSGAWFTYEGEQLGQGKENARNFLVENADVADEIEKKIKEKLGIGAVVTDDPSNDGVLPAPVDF
# Arbovirus anti: arbovirus infection inhibition. arbovirus infection cell-based antiviral screen. inhibition, % at 10 µM. actives 0.37% (n = 200,000). AID 1251;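 active = inhibition from about 30%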;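 also: bluetongue infection of BSR cells; cell survival read as ATP light after 72 h; 0% = infected wells without compound and 100% = uninfected wells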
# Mtb growth: M. tuberculosis H37Rv growth inhibitors, H37Rv strain (AID 1626); M. tuberculosis H37Rv growth inhibition; higher % means a stronger effect; inhibition, % at 10 µM, or IC50 in µM where a hit was titrated; actives 0.95% (n = 220,000);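 active = confirmed in a dose series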;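 also: bacteria incubated seven days before Alamar blue readout; 0% = bacteria only wells and 100% = bacteria with antibiotic wells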
# Mtb bLac sens: beta-lactam sensitization of Mtb H37Rv; inhibition, % at 25 µM; AID 434955; M. tuberculosis H37Rv growth with meropenem, percent inhibition; hits of this screen are not shown here; actives 0.27% (n = 330,000);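 active = about 74% or more and at least 40 points above the plate without the antibiotic, then above 30% in a dose series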;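 also: growth measured after seven days incubation then overnight dye step; 0% = bacteria only wells and 100% = bacteria with antibiotic; twin plates without the antibiotic show which effects depend on it; some results filed as inactive read as strong as hits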
# Arbovirus anti repeat: second read-out of Arbovirus anti, no call of its own (marks repeat the call); inhibition, %; measured here: 10K subset replicate screen; many hits read low in the repeat;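 first of two repeat runs on a subset; 0% = infected and 100% = uninfected wells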
# An asterisk follows results filed as active; nt = no result given.
SMILES,YopH inh,RecA splice inh,Arbovirus anti,Mtb growth,Mtb bLac sens,others
Cc1ccc(C(=O)C(C)OC(=O)C2CC(=O)N(C3CCCCC3)C2)cc1 (stereo not given),-20,0.5,-2,-1%,-5,
COc1ccccc1NC(=O)c1ccc(NC(=O)CSc2ncn[nH]2)cc1,-33,0.2,24,14%,70,
O=C(NCc1ccccn1)c1cccc(S(=O)(=O)Nc2ccc(SC(F)F)cc2)c1,nt,4.0,nt,nt,3,
Clc1ccc(CSc2snnc2-c2ccccc2)c(Cl)c1,-20,5.6,3,-12%,12,
Cc1ccc(-c2cc3ccccc3nc2N2CCOCC2)cc1,nt,20,-13,6%,-4,
O=C(c1ccccc1[N+](=O)[O-])N1CCN(Cc2ccc3c(c2)OCO3)CC1,-35,-3.1,-2,2%,-2,
O=C(c1ccc([N+](=O)[O-])cc1)N1C=CC(C(F)(F)F)=NCC1,nt,-2.8,2,-2%,0,
COc1ccc(C(C)=O)cc1CS(=O)(=O)CC(=O)O,nt,1.4,1,1%,6,
CCOc1ccccc1CN1CCC(n2nccc2NC(=O)CCCc2ccccc2)CC1,nt,0.1,nt,nt,-8,
O=C(COc1ccc(Cl)cc1Cl)Nc1ccc2nc3n(c(=O)c2c1)CCCC3,-49,-2.2,-15,6%,-15,
CC(C)(C)OC(=O)N1CCN(C(=O)[C@H](Cc2ccc(O)cc2)n2cc(CCO)nn2)CC1,nt,-0.1,2,-19%,-17,
CCN(Cc1ccccc1)C(=O)CCS(=O)(=O)c1ccc2c(c1)CCN2C(C)=O,nt,6.3,nt,nt,2,
COc1ccc(NC(=O)NC2CCCc3ccccc32)c(OC)c1 (stereo not given),nt,-1.8,nt,nt,-14,
O=C(COC(=O)C1CCC1)NCc1ccccc1Cl,-38,1.0,5,3%,-8,
CC12CN3CC(C)(CN(C1)C3c1cc3ccccc3[nH]1)C2=O (stereo not given),-40,-3.5,4,2%,-7,
CC(C)(C)c1cc[n+](-c2[nH]c(=O)sc2/C=N/NC([S-])=Nc2ccccc2)cc1,nt,-6.2,nt,-13%,2,
Cc1cccc(C(=O)NCC(=O)OCC(=O)N2CC3(C)CC2CC(C)(C)C3)c1 (stereo not given),-22,-0.1,1,-8%,-1,
CCCNC(=O)CN(C)CC(=O)Nc1ccccc1C#N,nt,3.6,2,-2%,12,
CC(Sc1nnc(-c2ccc(Cl)cc2)n1N)C(=O)NCC1CCCO1 (stereo not given),nt,1.2,nt,nt,-7,
COc1ccc(OC)c(C2CC(c3c(-c4ccccc4)c4cc(Cl)ccc4[nH]c3=O)=NN2S(C)(=O)=O)c1 (stereo not given),-34,5.3,-1,nt,nt,
COc1ccc(CN2CC(C(=O)NCCN3CCN(c4ccccc4F)CC3)CC2=O)cc1 (stereo not given),-20,2.3,6,-10%,-1,
OCCNCCOc1ccc(Cl)c(Cl)c1,-12,0.1,-18,-7%,2,
CSc1nc2ccsc2c(=O)n1-c1ccccc1,nt,-2.7,-1,-3%,-13,
Cc1ccc(NC(=O)NCCN2CCCCC2)cc1,nt,-0.7,nt,nt,2,
Cc1ccsc1/C=N/NC(=O)c1c[nH]c2ccccc12,-35,-0.4,-1,7%,-8,

# Reprinted at random: 7 records from the list, in no set order.
SMILES,YopH inh,RecA splice inh,Arbovirus anti,Mtb growth,Mtb bLac sens,others
COc1ccc(OC)c(C2CC(c3c(-c4ccccc4)c4cc(Cl)ccc4[nH]c3=O)=NN2S(C)(=O)=O)c1 (stereo not given),-34,5.3,-1,nt,nt,
CCOc1ccccc1CN1CCC(n2nccc2NC(=O)CCCc2ccccc2)CC1,nt,0.1,nt,nt,-8,
O=C(c1ccc([N+](=O)[O-])cc1)N1C=CC(C(F)(F)F)=NCC1,nt,-2.8,2,-2%,0,
O=C(c1ccccc1[N+](=O)[O-])N1CCN(Cc2ccc3c(c2)OCO3)CC1,-35,-3.1,-2,2%,-2,
CC(C)(C)OC(=O)N1CCN(C(=O)[C@H](Cc2ccc(O)cc2)n2cc(CCO)nn2)CC1,nt,-0.1,2,-19%,-17,
Clc1ccc(CSc2snnc2-c2ccccc2)c(Cl)c1,-20,5.6,3,-12%,12,
COc1ccccc1NC(=O)c1ccc(NC(=O)CSc2ncn[nH]2)cc1,-33,0.2,24,14%,70,

# Going on with the list.
SMILES,YopH inh,RecA splice inh,Arbovirus anti,Mtb growth,Mtb bLac sens,others
CCCNC(=O)CN(C)S(=O)(=O)c1c(C)cc(C)cc1C,-4,-2.6,-6,2%,-3,
C=CCc1cc2c(oc(=O)c3ccccc32)c(C)c1O,nt,4.4,3,0%,-4,
CCN(CC)c1ccc(/C=N/NC(=O)c2c(Cl)cnn2C)c(O)c1,-70,-45,-23,6%,8,
Cn1cnnc1SCC(C)(C)NS(=O)(=O)c1ccc(Cl)cc1,nt,0.7,nt,nt,0,
COc1cc(/C=C(\C#N)C(=O)Nc2cccc3ncccc23)cc(OC)c1OC,-22,1.1,-1,-9%,0,
Cn1c(=O)[nH]c(=O)c2c1nc(NN)n2CCOc1ccccc1,nt,-1.3,nt,nt,-10,
CC(=O)c1ccc(N(C(=O)Cn2nnc(-c3ccccc3)n2)C(C(=O)NC2CCCCC2)c2ccccn2)cc1 (stereo not given),-22,1.3,2,-3%,5,
COC(=O)c1ccc(NS(=O)(=O)N(C)C)cc1,-12,0.7,-3,-4%,3,
CCC(C(=O)NC1CCCC1)N(C(=O)Cn1nnc(-c2ccc(C)o2)n1)c1cnc2ccccc2c1 (stereo not given),-28,1.5,-5,-1%,-12,
Cc1ccc(NCc2nc3ccccc3n2C)cc1,-155,-1.6,1,7%,4,
Cc1cccc(NC(=O)c2cc(NC(=O)C3CCCCC3C(=O)O)ccc2N2CCOCC2)c1 (stereo not given),nt,0.8,nt,nt,-8,
CCOc1cc(C(=O)Nc2ccncc2)cc(OCC)c1OCC,nt,-0.5,15,-9%,-6,
COc1ccccc1-c1nnc(N(C)C(=O)C2CCCO2)s1 (stereo not given),-23,-0.6,-3,-5%,-8,
COCCCC1CCN(C(=O)c2cc(COc3cc(C)ccc3C)on2)CC1,nt,5.0,nt,nt,23,
CCCOC(=O)C1=C(C)NC2=C(C(=O)CCC2)C1c1cc(OC)ccc1OC (stereo not given),-49,0.4,0,-2%,-20,
COc1cc(/C=C/C(=O)N2CCCc3ccccc32)cc(OC)c1OC,-28,-0.8,1,26%,51,
CCc1ccc(Nc2ncc3c(n2)CC(c2ccc(OC)cc2)CC3=O)cc1 (stereo not given),-63,-1.2,5,-7%,29,
Clc1ccc2nc(SCc3nnc(-c4ccccc4)o3)[nH]c2c1,-40,1.5,2,nt,42,
CCC1(C)Cc2c(sc3nnn(CC(=O)Nc4ccccc4)c(=O)c23)CO1 (stereo not given),-39,1.4,7,-4%,nt,
CCOc1cc(NC(=S)NCC2CCCO2)c(OCC)cc1NC(=O)c1ccc(OC)cc1 (stereo not given),-13,-1.5,-13,9%,-2,
COc1ccc(C(=O)NC(=S)Nc2ccccc2F)cc1,-15,-0.6,-3,7%,8,
O=S1(=O)CCN(Cc2ccc(Cl)cc2)CC1,-39,-0.1,-2,3%,-4,
O=C(CSc1nn(-c2ccc(F)cc2)c(=S)s1)NC1CCS(=O)(=O)C1 (stereo not given),nt,14,-1,-1%,4,
CSCCC(NC(=O)c1ccccc1)C(=O)NCc1ccco1 (stereo not given),8,0.7,6,-1%,1,
CCCn1c(N)c(NCCN2CCOCC2)c(=O)n(CC(=O)NCc2ccccc2)c1=O,nt,0.1,21,4%,-6,
# Further structures
SMILES,YopH inh,RecA splice inh,Arbovirus anti,Mtb growth,Mtb bLac sens,others
CCn1c(CCc2ccccc2)nnc1SCC(N)=O,nt,-0.8,nt,nt,-12,
COc1ccc(CCC(=O)Nc2nc3ccccc3[nH]2)cc1OC,-15,-0.5,7,1%,2,
CCN1CCN(CCC(=O)Nc2ccc(Br)cc2)CC1,nt,-0.1,-4,3%,-10,
CCOC(=O)C1=C(C)N(C)C(=O)NC1c1c(O)ccc2ccccc12 (stereo not given),nt,-3.7,nt,nt,-3,
CN(C(=O)CS(=O)(=O)c1cn(CC(=O)N2CCCCC2)c2ccccc12)c1ccccc1,nt,-0.4,nt,nt,5,
Cc1ccc(N2CC(C(=O)N/N=C/c3c(F)cccc3Cl)CC2=O)cc1 (stereo not given),nt,-0.3,nt,nt,-2,
CCCCCc1c(O)nc(SCCN(CC)CC)[nH]c1=O,nt,5.7,17,-9%,-2,
CCN(CC1CCCO1)C(=O)CCc1nnc(CCc2ccccc2OC)o1 (stereo not given),nt,0.3,nt,nt,-8,
Nc1ccc(C(=O)NCCCCCCNC(=O)c2ccc(N)cc2)cc1,nt,-3.0,nt,nt,8,
CCOC(=O)c1cc(-c2ccccc2)n(CC2CC(c3ccc(OC)cc3)=NO2)n1 (stereo not given),nt,-0.8,nt,nt,0,
CCOc1ccc(S(=O)(=O)NCCC2=CCCCC2)c2ccccc12,5,9.9,-18,1%,2,
Cn1cc(S(=O)(=O)N2CCN(c3cccc(C(F)(F)F)c3)CC2)c(=O)n(C)c1=O,-32,-1.2,11,-2%,-2,
CCC(=O)N1CCc2cc(Br)cc(S(=O)(=O)NCc3ccccc3OC)c21,nt,-1.9,nt,nt,4,
COc1ccc2c(c1)O[C@@H](c1cccc(C(F)(F)F)c1)[C@H](OC(=O)Nc1ccc(OC(F)F)cc1)C2=O,-32,nt,-4,10%,-1,
Cc1ccc(CSC(Nc2ccc(F)cc2)=C(C#N)C#N)cc1,-18,25,-15,8%,-3,
CC(C)C1CC(C(=O)Nc2ccccc2)C(=O)O1 (stereo not given),nt,0.5,nt,nt,-2,
CCc1c(C(=O)O)[nH]c2ccc(Br)cc12,-53,2.0,8,-9%,-3,
Nc1ccc(S(=O)(=O)Nc2ccccn2)cc1,-56,-1.4,7,-5%,1,
FC(F)Oc1ccc(NC(=S)NCC2COc3ccccc3O2)cc1 (stereo not given),-24,0.1,9,10%,-10,
O=C(CSc1nc(O)c(-c2ccccc2)c(=O)[nH]1)N1CCOCC1,nt,-2.7,3,-5%,27,
CCN1CCN(C(=O)c2ccc(COc3cccc(Cl)c3)o2)CC1,nt,-0.2,nt,nt,6,
COc1ccc(C(=O)NC(=S)NNC(=O)c2ccc(O)cc2)cc1[N+](=O)[O-],nt,-0.5,nt,nt,3,
COc1ccccc1C(=O)NNC(=O)c1cccc([N+](=O)[O-])c1,nt,0.3,3,-13%,-2,
Cc1[nH]n(C(N)=S)c(=O)c1N=Nc1cc(-c2ccc(Br)cc2)[nH]n1,nt,14,20,0%,1,
O=C(Nc1nc(-c2cccs2)cs1)c1cccc(S(=O)(=O)N2CCCCCC2)c1,-9,2.5,-11,7%,12,
# (list continues)
SMILES,YopH inh,RecA splice inh,Arbovirus anti,Mtb growth,Mtb bLac sens,others
COc1ccc(Br)c(C(=O)Nn2c(C)nc3ccccc3c2=O)c1,-42,-0.7,-5,-3%,6,
Cn1c(O)c(C=Nc2ccccc2-c2ccccc2)c(=O)n(C)c1=O,nt,-4.5,nt,85%,89,
Cc1cc(C(=O)N2CCCC(N3CCN(c4cccc(Cl)c4)CC3)C2)nc(C)n1 (stereo not given),nt,1.0,nt,nt,1,
O=C1c2ccccc2C(Nc2ccccc2)N1c1cccnc1 (stereo not given),-39,-1.9,6,0%,0,
COc1ccc(N2CCN(c3nc4ccccn4c(=O)c3C=O)CC2)cc1,-9,-1.4,-10,7%,-4,
COc1ccc(N2CCN(C(=O)c3ccc4nc(N5CCCCC5)sc4c3)CC2)cc1,-32,-3.1,1,4%,1,Arbovirus anti repeat=1
O=C(NC12CC3CC(CC(C3)C1)C2)c1cncc(Br)c1,nt,0.7,nt,nt,-1,
Cc1cc(C)nc(N(C#N)S(=O)(=O)c2ccc(Br)cc2)n1,-53,nt,16,nt,nt,
CCC(=O)N1CCN(c2ccc(Cl)cc2NC(=O)c2cccc([N+](=O)[O-])c2)CC1,nt,1.3,-6,6%,1,
COc1ccc(F)c(-c2nc(CN3CCC(c4ccccc4)CC3)c(C)o2)c1,nt,2.1,5,-4%,17,
COc1ccc(/C=N/NC(=O)c2ccc(O)cc2)cc1CN1CCCc2ccccc21,-27,9.0,-22,1%,4,
CC(C)n1c(NCc2cccs2)nc2ccccc21,-43,0.1,11,1%,-7,
COCCNC(=O)C1CCC(CNS(=O)(=O)c2c(C)cc(C)cc2C)CC1 (stereo not given),nt,6.0,nt,nt,11,
Cc1nc2nc[nH]n2c(=O)c1NS(C)(=O)=O,-44,-1.5,12,-2%,1,
Cc1cccc(C(=O)N2N=C(c3ccc(NS(C)(=O)=O)cc3)CC2c2cccs2)c1 (stereo not given),nt,8.2,nt,nt,-4,
CCOC(=O)c1c(CC(C)C)csc1NC(=O)CCl,-24,52*,-1,nt,96,
O=C1OCC2=C1C(c1ccccc1)CC(=O)N2c1cccc(F)c1 (stereo not given),nt,4.3,4,-2%,-2,
O=C(Nc1cccnc1)c1ccc(-c2ccccc2)cc1,nt,3.6,-1,10%,-3,
CCCc1[nH]nc2c1C(c1ccccc1OC)C(C#N)=C(N)O2 (stereo not given),-8,61*,9,-1%,-6,

# Not all compounds are listed. The share of hits here may be higher or lower than overall.
